Source: PubChem
Mtb growth: Mycobacterium tuberculosis H37Rv growth inhibition, cell based, confirmatory dose response (AID 1949); most inactive calls were filed without a number and no value below 0 was filed; inhibition, % at 10 µg/mL; hits with a dose series show IC50 in µg/mL; actives 1.6% (n = 100,000);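 active = confirmed in a dose series; inconclusive = about 50% or more but not retested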;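 note: bacteria grown 7 days with compound before Alamar blue readout; 0% = untreated bacteria and 100% = reference antibiotic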
* = called active by the depositor; i = inactive; u = inconclusive. Only part of the results is shown; count on the stated rates, not on these rows.

SMILES | Mtb growth
COc1ccc(-c2cc(C(=O)Nc3ccc(Br)cc3F)c3ccccc3n2)c(OC)c1 | i
O=C(c1ccc(S(=O)(=O)N2CCCC2)cc1)N1CCN(c2ccccc2)CC1 | 1%
CC12CCC(C(=O)Nc3ccccc3Br)(CC1=O)C2(C)C (stereo not drawn) | i
Cc1ccc(-c2[nH]ncc2C(=O)O)c(C)c1 | i
CC(=O)Nc1nc(C(c2ccccc2)c2ccccc2)cs1 | 1%
CSc1ccc(S(=O)(=O)Nc2ccc3c4c(cccc24)CC3)cc1 | i
O=C(NC1CCC(NC(=O)c2cccc3ccccc23)CC1)c1cccc2ccccc12 (stereo not drawn) | i
N#Cc1c(-c2ccc(F)cc2)nc2n(c1=O)CCS2 | i
O=C(COc1ccc(Br)cc1Cl)Nc1cccc(Cn2cccn2)c1 | 5%
CC1CCCN(S(=O)(=O)c2cccc3nsnc23)C1 (stereo not drawn) | i
C#Cc1cccc(NC(=O)c2cccc(C(=O)Nc3cccc(C#C)c3)c2)c1 | i
CN(C)CCn1c2c(c3ccccc31)CCCn1cnnc1-2 | i
Cc1cccc(C(C)C)c1NC(=O)c1ccc(-c2ccccc2)cc1 | 4%
CCN(c1ccccc1)S(=O)(=O)c1ccc(NC(=O)c2ccc(F)cc2)cc1 | 24%
CC1Cc2ccccc2N1C(=O)CSc1nc2ccccc2o1 (stereo not drawn) | 7%
Cc1ccc(NC(=O)C(C)Sc2ccccn2)cc1 (stereo not drawn) | 3%
CCC1CCCCN1C(=O)COc1ccc2ccccc2c1 (stereo not drawn) | 0%
Cc1c(Nc2ncnc3c2cnn3-c2ccccc2)c(=O)n(-c2ccccc2)n1C | 2%
COC(=O)C(C)N(c1ccc(C)c(C)c1)S(C)(=O)=O (stereo not drawn) | i
O=C(Nc1cccc(Cl)c1)c1ccc(Cn2cc(Cl)cn2)cc1 | 5%
CCCC(CCC)C(=O)Nc1cccc(NC(=O)c2cccs2)c1 | 3%
CCCC(=O)NC(c1ccc(C(C)C)cc1)c1cc([N+](=O)[O-])c2cccnc2c1O (stereo not drawn) | i
O=C(Nc1ccccc1Cl)c1ccc(COc2ccc3c(c2)CCC3)cc1 | i
Cc1cc(C)c2c(N)c(C(=O)Nc3cccc4cccnc34)sc2n1 | i

By substructure, those above with two or more sulfur atoms.
SMILES | Mtb growth
CSc1ccc(S(=O)(=O)Nc2ccc3c4c(cccc24)CC3)cc1 | i
CC1CCCN(S(=O)(=O)c2cccc3nsnc23)C1 (stereo not drawn) | i

Continued.
SMILES | Mtb growth
CS(=O)(=O)NCc1ccc(C(=O)NC2CCCCC2)cc1 | i
C=CCn1c(=N)n(CC(O)c2cccc(Br)c2)c2ccccc21 (stereo not drawn) | 6%
Cc1cccc(C)c1NC(=O)Cn1c(=O)n(C)c(=O)c2ccccc21 | i
O=C(c1cccc(Br)c1)N1N=C(c2ccncc2)CC1(O)C(F)(F)F (stereo not drawn) | i
O=C(COc1ccc2c(-c3ccccc3)cc(=O)oc2c1)c1ccc(F)cc1 | i
CCCCOc1cccc(C(=O)Nc2cc(Cl)ccc2OC)c1 | i
Cc1ccc(C(CC(=O)N2CCOCC2)c2ccc(OC(C)C)cc2)cc1 (stereo not drawn) | i
O=C(NCc1ccccc1)c1cn(-c2ccccc2)nc1-c1cccs1 | i
CCCS(=O)(=O)c1ccc(COC(=O)c2ccccc2NC(=O)c2ccco2)cc1 | 1%
COc1cc2c(cc1OC)C(c1ccc(-c3ccccc3)cc1)CC(=O)N2 (stereo not drawn) | i
CCOC(=O)c1cnc2ccc(OCC)cc2c1NCCCO | i
CC1=C(C#N)C(NC(=O)c2ccc(C)cc2)(C(F)(F)F)C(=O)N1 (stereo not drawn) | i
CCC1(C(=O)c2ccc(C)cc2)C2c3cc(Br)ccc3OC(=O)C21C(=O)OC (stereo not drawn) | i
COc1ccccc1CN1CCN(Cc2ccccc2Br)CC1 | i
Cc1cccc(C)c1NC(=O)C(C)N1C(=O)C2C3C=CC(C4CC34)C2C1=O (stereo not drawn) | i
CN(C)c1ccc(NC(=O)c2cc3c(n(-c4ccc(Cl)cc4)c2=O)CCCC3=O)cc1 | 2%
O=c1c2c3c(sc2ncn1Cc1ccc(Cl)cc1Cl)CCCC3 | 1%
O=C1CCCC2=C1C(c1ccc(F)c(Oc3ccccc3)c1)Nc1ccccc1N2 (stereo not drawn) | i
Cc1nn(C(C)(C)C)c(OC(=O)c2ccc(Cl)cc2)c1S(=O)(=O)c1ccccc1 | 4%
COC(=O)c1cc(NC(C)=O)ccc1Cl | i
COC(=O)c1cccc(NC(=O)CCN2C(=O)c3ccccc3C2=O)c1 | i
CCOc1ccc(C(=O)NC(=S)Nc2ccc(N3CCCC3)c(Cl)c2)cc1Br | 3%
COc1ccc(CCNC(=O)C2CC(=O)N(c3ccc(Cl)cc3)C2)cc1OC (stereo not drawn) | i
COc1ccc(CCNC(=O)C2COc3ccccc3O2)cc1 (stereo not drawn) | 3%
COC(=O)c1c(NC(=S)NC(=O)c2cccs2)sc2c1CCCCCC2 | i
COc1ccc(S(=O)(=O)N(CC(=O)Nc2ccc(S(=O)(=O)N3CCOCC3)cc2)c2ccccc2)cc1 | i
CCOc1ccc(NC(=S)NC(NC(=O)N(C)C)C(Cl)(Cl)Cl)cc1 (stereo not drawn) | i
CCOc1ccc(S(=O)(=O)N2CCN(C(c3ccccc3)c3ccccc3)CC2)cc1 | 0%
CC1=C(C(=O)OCCOC(C)C)C(c2ccccc2Br)C2=C(CC(C)(C)CC2=O)N1 (stereo not drawn) | i
COc1cccc(NC(=S)Nc2cc(C)cc(C)c2)c1 | i
O=C(O)CC(C(=O)O)c1ccc(F)cc1 (stereo not drawn) | i
CC(CC(=O)NCc1ccccc1)C1CCCO1 (stereo not drawn) | i
CN(CC(=O)NCCCc1ccccc1)S(=O)(=O)c1cc(Cl)ccc1Cl | i
Cc1cc(C(=O)Nc2sc(C)c(C)c2C#N)cs1 | i
CC(C)C(=O)N1CCN(c2ccccc2NC(=O)c2ccc(-c3cccc([N+](=O)[O-])c3)o2)CC1 | i
O=C(c1cccs1)N1CCN(Cc2ccccc2C(F)(F)F)CC1 | i

Quoted at random: 6 records from the list, in no set order.
SMILES | Mtb growth
Cc1ccc(-c2[nH]ncc2C(=O)O)c(C)c1 | i
O=C(Nc1cccc(Cl)c1)c1ccc(Cn2cc(Cl)cn2)cc1 | 5%
Cc1ccc(NC(=O)C(C)Sc2ccccn2)cc1 (stereo not drawn) | 3%
O=C(COc1ccc2c(-c3ccccc3)cc(=O)oc2c1)c1ccc(F)cc1 | i
O=C(NCc1ccccc1)c1cn(-c2ccccc2)nc1-c1cccs1 | i
CCCC(CCC)C(=O)Nc1cccc(NC(=O)c2cccs2)c1 | 3%

Next part
SMILES | Mtb growth
COC(=O)Cc1c(C)c2cc(Cl)c(OCc3c(C)ccc4ccccc34)cc2oc1=O | i
CCOc1cc(Br)c(C2NC(=O)NC(c3ccccc3)=C2C(C)=O)cc1OCC (stereo not drawn) | i
CCOC(=O)c1c(-c2ccc(OC)cc2)csc1/N=C/N(C)C | 5%
O=C(Nc1ccccc1C(=O)NCCOc1ccccc1)c1ccc(Cl)cc1 | i
CCOC(=O)c1cnc2c(-c3ccc(Cl)cc3)c(C)nn2c1N | 5%
Cc1ccnc(NC(=S)NC(=O)c2cncc(Br)c2)c1 | i
COc1cccc(-c2nc(S(=O)(=O)c3ccccc3)c(N(C)C)o2)c1 | i
Cc1cccc(-n2ncc3c2ncn2c(COc4ccccc4C)nnc32)c1 | i
O=C(Nc1ccccc1C1CC1(Cl)Cl)c1cccs1 (stereo not drawn) | i
COCCn1c(SCC(=O)Nc2ccc(C)cc2)nnc1-c1ccccc1 | i
O=C1CNC(=S)N1c1ccc(Oc2ccccc2)cc1 | i
COc1cc(OC)c(C(=O)N2CCCCC2)cc1OC | i

Given as labelled records: part of the list above.
COc1cccc(-c2nc(S(=O)(=O)c3ccccc3)c(N(C)C)o2)c1
  Mtb growth: i

Cc1cccc(-n2ncc3c2ncn2c(COc4ccccc4C)nnc32)c1
  Mtb growth: i

O=C(Nc1ccccc1C(=O)NCCOc1ccccc1)c1ccc(Cl)cc1
  Mtb growth: i

CCOC(=O)c1c(-c2ccc(OC)cc2)csc1/N=C/N(C)C
  Mtb growth: 5%

Following part
SMILES | Mtb growth
N#Cc1ccccc1NC(=O)CCCN1C(=O)c2ccccc2C1=O | i
CCOc1ccc2nc(Nc3nc(C)c(Cc4cccc5ccccc45)c(=O)[nH]3)nc(C)c2c1 | i
CCOc1ccc2nc(SCCCOc3ccccc3)[nH]c2c1 | u
N#CCC1CN2CCC1C(c1ccccc1)C2 (stereo not drawn) | i
Cc1ccc(-c2nc(SC3CC(=O)N(c4ccc(Oc5ccccc5)cc4)C3=O)n[nH]2)cc1 (stereo not drawn) | i
COc1cc(Br)cc(CO)c1OC | i
O=C(Nn1cnnc1)c1cc(-c2ccccn2)nc2ccc(Cl)cc12 | i
c1ccc2c(c1)oc1c(NC3CCCC3)ncnc12 | 20%
CCOc1ccccc1NC(=O)NS(=O)(=O)c1ccc(C)cc1 | 2%
COc1ccc(-c2cc(C(=O)N3CCCC3)c3cc(Br)ccc3n2)cc1 | 0%
CCOC(=O)c1ccc(N2C(=O)CC(NC3CC3)C2=O)cc1 (stereo not drawn) | i
O=C(c1ccc(NS(=O)(=O)c2ccc(Cl)cc2)cc1)N1CCOCC1 | i
CN1C(=O)c2ccc(C(=O)Nc3cccc(C(=O)O)c3)cc2C1=O | i
COc1ccc2c(c1)OCC1=C2CCC2(C)C(=O)CC=C12 (stereo not drawn) | 37%
Cc1ccc(SC(C)C(=O)Nc2cccc(F)c2)cc1 (stereo not drawn) | i
Cc1ccc(OCC(=O)Nc2cccc(C)c2C)cc1C | i
CN1CCN(c2nc(Nc3ccc(O)cc3)nc3ccccc23)CC1 | 1%
CCN(CC)C(=O)c1cc2cccc(OC)c2oc1=O | i
CN(Cc1ccccc1)C1(O)C(=O)Nc2c(C(F)(F)F)cccc21 (stereo not drawn) | 0%
CNC(=O)c1ccc(N(C)S(=O)(=O)c2ccc(C)cc2)cc1 | 1%
Cc1ccc(OCCCCN2CCCC2)c([N+](=O)[O-])c1 | i
Cn1nnc2cc(NC(=O)NCc3ccccc3)ccc21 | 2%
CC(CCc1ccccc1)NC(=O)c1cccc([N+](=O)[O-])c1 (stereo not drawn) | i
CCOc1ccc(C(=O)Nc2cccc(CC)c2)cc1 | i
COc1ccc(C(=O)Nc2cc(NC(=O)c3ccc(OC)c(OC)c3)cc(C(=O)O)c2)cc1OC | i
O=C1CC(NCc2ccccc2)C(=O)N1c1ccc(F)cc1 (stereo not drawn) | 1%
COC(=O)c1ccc(Cn2cnc3c2c(=O)n(C)c(=O)n3C)cc1 | i
Cc1nc2ccc(NC(=O)c3cc(F)c(F)cc3Cl)cc2s1 | i
CCc1cccc(C)c1NC(=O)CSc1nnc(CNC(=O)c2ccc(OC)c(OC)c2)n1C | i
COc1ccccc1CCNC(=O)Nc1cccc([N+](=O)[O-])c1 | i
CCOC(=O)C1=C(C)N=c2s/c(=C\c3ccc(OC)c(Br)c3)c(=O)n2C1c1ccccc1Cl (stereo not drawn) | i
COc1ccccc1C1C(C(=O)Nc2ccc(C)cc2C)=C(C)Nc2nnnn21 (stereo not drawn) | i
CCOc1ccc(NC(=O)c2cc3c(ccc4ccccc43)o2)cc1 | i
CCOc1ccc(Br)cc1C(=O)N1CCCCC1 | 2%
Cc1ccc(C(C)C)c(OCC(=O)NCc2cccnc2)c1 | i
COc1cccc(C(=O)Nc2cc(C)on2)c1 | i
C=CCN(CC=C)C(=O)c1ccccc1F | i
CCOC(=O)c1ccc(NC(=S)NCc2ccccn2)cc1 | i
c1ccc(OCCCOc2ccccc2)cc1 | i
CCCCC(=O)Nc1ccc(NC(=O)c2cc(C)cc(C)c2)cc1OC | i
Cc1c(N(C)C(=O)c2ccccc2N)c(=O)n(-c2ccccc2)n1C | i
COc1cccc(N(CC(=O)Nc2ccccc2C(=O)NC2CCCCC2)S(C)(=O)=O)c1 | i
CCOCCCNCc1sccc1C | i
Cc1ccc(-c2ccc(S(=O)(=O)NCCc3ccccc3)cc2)cc1 | 2%
COC(=O)c1c(NC(=O)CCCC(=O)O)sc2c1CCCCC2 | i
Cn1c2ccccc2c2nnc(SCC(=O)Nc3nc4c(s3)CCCC4)nc21 | 5%
CCc1nccn1S(=O)(=O)c1ccc(I)cc1 | i
Cc1cccc(C(=O)NCc2n[nH]c(=S)n2C)c1 | i
Cc1cc2nn(-c3ccc(C(C)C)cc3)nc2cc1NC(=S)NC(=O)c1cccs1 | i
CCOc1cccc(C(=O)Nc2nc(-c3ccc(S(=O)(=O)N4CCOCC4)cc3)cs2)c1 | i
CC(C)NC(=O)c1ccccc1NC(=O)CN(c1ccccc1)S(=O)(=O)c1ccccc1[N+](=O)[O-] | i
CCOc1ccc(NC(=S)NCCN(C)C)cc1 | i
Cc1c(-c2ccccc2)[n+](=O)c(-c2ccco2)c(C)n1[O-] | i
COc1ccc(C2=CC(c3ccccc3Cl)n3nnnc3N2)cc1OC (stereo not drawn) | 24µg/mL*
C=CCNC(=S)NC(=O)c1ccco1 | i
Cc1cc2nc(NC(=O)Nc3ccc(Cl)cc3)sc2cc1C | i
COC(=O)c1c(NC(=O)CN2C(=O)c3ccccc3C2=O)sc2c1CCC2 | i
CC(C)C(=O)N1CCN(c2ccc(N)cc2Cl)CC1 | i
C=CCNC(=O)CN(Cc1ccc(C)cc1)S(=O)(=O)c1ccc(Cl)cc1 | 46%
COc1ccc(C=NN2C(=O)C3C4C=CC(C5CC45)C3C2=O)cc1OC (stereo not drawn) | i
